Compound activity as filed in PubChem.
CapD inh – blocks the Bacillus anthracis CapD enzyme; purified CapD enzyme, fluorescence intensity read-out; active compounds read low; some hits fall short of the stated cut; z-score (concentration not given with the values); 0.23% of 140,000 active;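 active = z-score under -4 in either of two replicates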;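 note: stock transfer was 100 nL into about 40 µL; score is relative to mean and spread of the plate; one replicate is shown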
AID504770 – E. coli YBA685 growth inhibition, screen for V. cholerae RctB inhibitors. z-score (concentration not given with the values). 0.27% of 130,000 active. E. coli YBA685 rctB-dependent plasmid, OD600 growth, 3 h; active compounds read low;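 active = z-score under -2 on both plates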;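 note: wells of about 30 µL received 100 nL stock; score is relative to mean and SD of the test wells; the first replicate is given; strong numbers were not always called active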
Active calls of the source: *; . = no result given; & = joins results of further samples.

Compound | CapD inh | AID504770
CCOc1ccc2cc(C3CC(c4ccccc4)=NN3C(C)=O)c(=O)[nH]c2c1 (stereo not drawn) | -0.73 | .
c1ccc2[nH]c(Cc3nnc4n3CCCCC4)nc2c1 | 0.24 | 0
O=C(/C=C/c1ccco1)N1CCn2c(nc3ccccc32)C1 | 0.35 | -1.1
Cc1nnc2n(c1=O)C(CS(=O)(=O)c1ccccc1)CS2 (stereo not drawn) | . | -2.5
COc1ccc(S(N)(=O)=O)cc1C | 0.09 | -0.8
COc1ccc(/C=C2\C=C(c3ccccc3)N(c3ccccc3Br)C2=O)cc1Br | -0.4 | .
Nn1cc(-c2ccccc2)nc1SCC(=O)c1ccc(Cl)s1 | . | -0.75
O=C(c1ccc2c(c1)OCCO2)N1CCCSC1=Nc1ccccc1 | . | 0.05
O=C1C2CCCN2C(=O)N1c1ccc(Br)cc1 (stereo not drawn) | . | 1.8
Cn1ccc(-c2ccc(Oc3cccc(Cl)c3C#N)cc2)n1 | -0.71 | 0.25
CN(C(=O)CSc1ncnc2ccccc12)C1CCCCC1 | 0.055 | -0.9
O=C(Nc1ccc2c(c1)OCO2)c1ccc(Br)o1 | -0.49 | -0.7
CS(=O)(=O)c1cnc(-c2ccccn2)nc1-c1cccc(F)c1 | -0.36 | .
CCN(CC)CCNc1nc2nonc2nc1NCCN(CC)CC | -0.34 | .
CC(=O)N1C(=O)C2(C(C#N)=C(N)Oc3cc(C)oc(=O)c32)c2ccccc21 (stereo not drawn) | . | -1.2
CN1C(=O)/C(=C/c2ccccc2)NC1=S | -2.4 | -1.1
C=CCn1c(N)cc(=O)nc1SCC(=O)NC(C)c1ccccc1 (stereo not drawn) | . | -0.65
O=C(NC1CCCC1)C(c1ccc(O)cc1)N(C(=O)Cn1nnc(-c2cccs2)n1)C1CCCC1 (stereo not drawn) | . | 0.6
COC(=O)CSc1nnc2n(-c3ccc(OC)cc3)c(=O)c3c4c(sc3n12)CCCCC4 | 0.095 | .
c1ccc2[nH]c(CCCc3nc4ccccc4[nH]3)nc2c1 | -0.33 | 1.6

New compounds follow
Compound | CapD inh | AID504770
Cn1ncc(N)c1C(=O)N1CCOCC1 | . | 1.1
O=C1CSC(c2cc3c(cc2[N+](=O)[O-])OCO3)N1c1cc(Cl)cc(Cl)c1 (stereo not drawn) | 1.5 | .
CCCCN1C(=O)c2ccc(C(=O)OCC(=O)c3ccc(CNC(C)=O)o3)cc2C1=O | . | -0.5
CC(C)Nc1cc(N2CCN(Cc3ccc4c(c3)OCO4)CC2)c2noc3c2c1C(=O)c1ccccc1-3 | -0.58 | 1.4
Cc1ccc(NS(=O)(=O)c2c(C)nn(C)c2Cl)c(C)c1 | 0.08 | 2.5
CCCCNS(=O)(=O)c1ccc2nc(SCC(=O)C(C#N)c3ccccc3)[nH]c2c1 (stereo not drawn) | . | 0.3
CN(C)c1cc(Nc2ccc(SC#N)cc2)c([N+](=O)[O-])c2nonc12 | 0.91 | .
O=C(c1ccc2c(c1)OCO2)N(Cc1cccs1)C1(C(=O)NC2CCCC2)CCCCC1 | 0.065 | .
COC(=O)c1cc(=O)n2c(n1)sc1cc(OC)ccc12 | 0.32 | -0.45
CC1CCCCC1NC(=O)c1cccc2c1SCCC2=O (stereo not drawn) | -1.3 | -1.2
COc1cc2nc(C3CCC3)n(N)c(=O)c2cc1OC | . | -0.85
O=C(Nc1ccccc1[N+](=O)[O-])c1cccc(S(=O)(=O)Nc2ccc(C(=O)N3CCOCC3)cc2)c1 | -0.42 | .
O=C(Nc1ccc(Cl)c(C(F)(F)F)c1)C(=S)NCc1ccco1 | -0.56 | 0
O=C(COC(=O)c1ccc(S(=O)(=O)NCc2ccco2)cc1)Nc1ccccc1 | . | 0.6
Cc1ccc(NC(=S)NC2CCS(=O)(=O)C2)cc1 (stereo not drawn) | -0.12 | -0.25
O=C(CCSc1nnnn1-c1ccccc1)Nc1cc(C(F)(F)F)ccc1Cl | -0.39 | -0.9
O=S(=O)(c1ccc(C2CCCCC2)cc1)N1CCc2ccccc21 | -0.43 | .
CCC(C)(C)/C(=N/O)c1ccccc1 | 0.17 | 0.65
CN(Cc1ccccc1)c1ncnc2c1oc1ccccc12 | . | -0.5
COc1cc(OC)cc(C(=O)Nc2cc(C(=O)N3CCCC3)ccc2N2CC3CC(C2)c2cccc(=O)n2C3)c1 (stereo not drawn) | 0.45 | 0

Next part:
Compound | CapD inh | AID504770
Cc1sc2nc(SCC(=O)NCCCN3CCOCC3)[nH]c(=O)c2c1C | . | -0.65
Cc1cc(-c2nc(C)c(-c3nnc(SCC(=O)Nc4ccccc4)n3C)s2)no1 | 90 | -0.55
Cc1cc(N)n(-c2ccc(S(=O)(=O)c3ccc(C(C)C)cc3)cc2)n1 | . | 0.3
CSc1nc2ccc(NC(=O)c3ccc(F)c(F)c3)cc2s1 | 0.65 | -0.85
N#Cc1cnc2c(C(N)=O)cnn2c1N | 18 | 2
Brc1ccc2nc(N3CCOCC3)nc(-c3ccccc3)c2c1 | -0.23 | .
COCCNC(=S)N1CCC(NC(=O)Nc2ccc(F)cc2)CC1 | . | 0.3
O=C1C(=Cc2ccco2)C(=O)N(c2ccccc2)C(=O)N1c1ccccc1 | 0.52 | 1.6
CCN1C(=O)C(C(=O)O)C(=O)c2ccccc21 (stereo not drawn) | 5 | 0.95
O=C(O)c1c[nH]c(=O)n(-c2ccccc2F)c1=O | . | 0.1
CC(=O)NCCNc1nc2c(-c3ccc(Cl)cc3)nnn2c2ccccc12 | 0.33 | -0.1
CC(OC(=O)C1CC1)C(=O)Nc1cccc(Cl)c1 (stereo not drawn) | . | 0.2
N#CCc1ccc(NC(=O)CSCc2ccccc2)cc1 | 0.28 | -0.05
Cc1cc(C)n2c3c(c(C#N)c2n1)CCCC3 | 0.1 | -0.35
O=C(CSc1nc2ccccc2o1)NC(=O)NC1CCCC1 | . | -0.5
COc1cccc(-c2nc(-c3ccc(NC(=O)c4cccnc4)cc3)no2)c1 | 0.67 | -0.25
CCCOc1ccc(Cc2nnn(CC(=O)O)n2)cc1 | -0.49 | -0.85
Cc1cc(C(F)(F)F)n2ncnc2n1 | 0.64 | -1.1
CCNC(=S)N/N=C/C1=CCC2CC1C2(C)C (stereo not drawn) | . | -2.4
CCNc1nnc(CSc2nc3ccccc3s2)s1 | 0.72 | 0.55

Further records:
SMILES,CapD inh,AID504770
CN(C)c1ccc(Nc2cc(N3CCC(=O)CC3)c3noc4c3c2C(=O)c2ccccc2-4)cc1,0.15,0.4
N#Cc1c(C(F)(F)F)cc(-c2ccccc2)[nH]c1=O,101&65,0.1
COc1ccc(-c2noc(N(C)CC(=O)Nc3ccc(Oc4ccccc4)cc3)n2)cc1,-0.63,0.1
N[C@@H](CC1CCCCC1)C(=O)O,2.5,-0.35
O=S1(=O)CCN2C=CC=NC2=N1,.,-0.85
CCOC(=O)c1oc2ccccc2c1CN(C)CCc1ccccc1,.,-0.25
Cc1ccc(NC(=O)NC2CC(C)(C)NC(C)(C)C2)cc1,0.42,0.95
CO/C(C)=C\c1sc2ccccc2[n+]1C,-1.1,3
O=C(COC(=O)c1c(C(F)(F)F)cccc1C(F)(F)F)c1ccc(Cl)cc1,0.58,-1.2
COc1ccc(C2(CNC(=O)C3(c4ccccc4)CCCC3)CCCC2)cc1OC,-0.57,.
O=S(=O)(c1ccc(OCc2ccc(Br)cc2)cc1)c1ccc(OCc2ccc(Br)cc2)cc1,0.22,.
CCOC(=O)N1CCC(N(CCN(C)C)C(=S)Nc2ccc(C)c(F)c2)CC1,-0.09,-0.25
CCN1C(=O)N(c2ccccc2)P(=S)(N2CCCC2)c2cc3c(cc21)OCCO3 (stereo not drawn),.,-0.25
COC(=O)c1cc(S(=O)(=O)NCc2ccccc2)c[nH]1,-0.57,-0.45
CC(C)C(=O)Nc1ccc2c(c1)C(=O)NC2=O,97,-1
COc1ccc2nc(C(=O)N3CCN(C)CC3)sc2c1,34,-0.1
Cc1noc(C)c1C(=O)OCC(=O)N(c1ccccc1)C1CCCCC1,.,0.15
COc1ccc(C(=O)Nc2cc(C(=O)c3ccccc3)c(C)oc2=O)cc1,-0.035,.
COC(=O)CNC(=O)c1sc2nc(C)nc(N(C)c3ccc(C(C)C)cc3)c2c1C,-1.2,.
CCCN1CCCc2cc(CN(CCOC)C(=S)Nc3ccccc3OC)ccc21,-0.04,1.1
O=C(CN1CCN(c2ccc(F)cc2)CC1)N1CCCC1,.,-0.8
Cc1ccc([C@@H]2[C@@H](C(=O)c3ccccc3)N3c4ccccc4C=C[C@@H]3C2(C#N)C#N)cc1,0.76,.
C(=NCC1CCC(CN=Cc2ccco2)CC1)c1ccco1 (stereo not drawn),0.97,-0.25
CNC(=O)n1nc(C)c(Cc2csc3ccc(Cl)cc23)c1C,0.69,0.4
CC(=O)Nc1ccc2nc(SCC(=O)c3ccc(Br)cc3)sc2c1,0.38,.
Cc1ccc(NC(=O)Cn2cnc3sc(C(=O)N4CCC5(CC4)OCCO5)c(C)c3c2=O)cc1Cl,0.15,.
O=C(O)COc1c(-c2ccccc2)oc2ccccc2c1=O,5.6,-0.85
CC(C)S(=O)(=O)N1CCN(c2ccnc3cc(Cl)ccc23)CC1,-0.29,0
COc1ccc(-n2ncc(C(=O)Nc3ccc4nccnc4c3)c2C)cc1,11,1.1
CCN(CC)C(=O)CN1CCN(c2cccc(Cl)c2)CC1,.,-0.1

(more compounds)
SMILES,CapD inh,AID504770
C=CCn1c(SCC(N)=O)nnc1C1CCCCC1,0.84,-0.6
O=C(NCc1ccccc1)c1nn(-c2ccc(Cl)cc2)c(=O)c2ccccc12,0.45,.
CCCc1nc2ccccc2n1CC(=O)Nc1ccc(F)cc1,0.14,-0.35
COc1ccc(/C=C(/NC(=O)c2ccccc2)C(=O)NC(Cc2c[nH]c3ccccc23)C(=O)O)cc1 (stereo not drawn),-0.28,.
CC(NC(=O)c1c(F)cccc1F)C(c1cccs1)N1CCOCC1 (stereo not drawn),-1.1,2.5
COc1cccc(N2CC(=O)N(/N=C/c3ccc(Cl)cc3)CC2=O)c1,-0.3,-0.4
C/C(=N\NC(=O)COc1ccc(Br)cc1)c1ccc2c(c1)OCO2,.,-0.2
COc1ccc(-c2nc(N3CCCCC3)c3ccccc3n2)cc1,0.94,0.3
Cc1ccc(-c2cnc(-c3ccncc3)o2)cc1,63,2
N=C1S/C(=C\c2ccc(-c3ccc([N+](=O)[O-])cc3)o2)C(=O)N1c1ccc2c(c1)OCO2,-0.31,.
O=S(=O)(CCNCc1cccs1)c1ccc(Cl)cc1,0.18,-0.15
COC(=O)C1(C(O)c2ccc(Cl)cc2)CCCCC1 (stereo not drawn),0.045,-0.5
O=C(NCCN1CCOCC1)c1cccc(S(=O)(=O)Nc2ccccc2F)c1,.,-1.5
O=S(=O)(NC1CCN(c2ccccc2)CC1)c1ccc(Cl)cc1,-0.68,.
CCOC(=O)c1ccc(Nc2nc3nonc3nc2NC(C)C)cc1,-0.31,.
C=CCn1c(N)c(C(=O)OC)sc1=S,-1.5,.
Cc1ccc2c(c1)CCCN2C(=O)CC1OC(=O)c2ccccc21 (stereo not drawn),.,0.2
CCC(C)c1ccccc1OCCCCN1CCN(C)CC1 (stereo not drawn),0.19,-0.4
CC(NC(=O)CSc1ccccc1Cl)C1CC2CCC1C2 (stereo not drawn),0.1,-0.05
CCCc1cc(=O)oc2cc(OCC(=O)O)ccc12,69,-0.15
COc1ccc(C(=O)N/N=C/C23CC[C@@H](O)CC2(O)CC[C@@H]2[C@@H]3CCC3(C)C(C4=CC(=O)OC4)CCC23O)cc1 (stereo partly drawn),-0.28,.
CC(C)(C)c1cc(N)nc(N)n1,0.12,.
Cc1ccc(C(=O)N(C)Cc2nc3ccccc3c(=O)[nH]2)c(O)c1,.,0
O=C(CN1C2=NCCN2c2ccccc21)c1cccs1,-0.015,.
COc1cccc(-c2nn(C)c3sc(C(=O)NCc4ccccn4)cc23)c1,48,1.8
O=C(Nc1ccccc1N1CCCC1)c1cccc(OCc2ccccc2)c1,-0.47,0.2
Cn1c2c(c(=O)[nH]c1=O)C(c1ccc(Br)cc1)C1=C(N2)c2ccccc2C1=O (stereo not drawn),0.93,.
Clc1cc(CSc2nnnn2C2CCCC2)cc2c1OCCCO2,.,-0.65
CN(Cc1ccccc1)C(=O)CCN1C(=O)COc2ccccc21,-0.14,-0.15
N#C/C=C/c1ccc(Br)cc1C(F)(F)F,0.13,.

Another view of part of the listing above:
Values run as follows: CapD inh	AID504770
Cc1ccc(-c2cnc(-c3ccncc3)o2)cc1
  63	2
N=C1S/C(=C\c2ccc(-c3ccc([N+](=O)[O-])cc3)o2)C(=O)N1c1ccc2c(c1)OCO2
  -0.31	.
O=S(=O)(CCNCc1cccs1)c1ccc(Cl)cc1
  0.18	-0.15
COC(=O)C1(C(O)c2ccc(Cl)cc2)CCCCC1 (stereo not drawn)
  0.045	-0.5
O=C(NCCN1CCOCC1)c1cccc(S(=O)(=O)Nc2ccccc2F)c1
  .	-1.5
O=S(=O)(NC1CCN(c2ccccc2)CC1)c1ccc(Cl)cc1
  -0.68	.
CCOC(=O)c1ccc(Nc2nc3nonc3nc2NC(C)C)cc1
  -0.31	.

Next section:
SMILES,CapD inh,AID504770
Cc1c(C(=O)N2CCCCCC2)sc2ncnc(N3CCC(C)CC3)c12,-0.27,.
CC12CN3CC(C)(CN(C1)C3c1ccc(F)cc1)C2=O (stereo not drawn),-0.44,.
O=C(C(NS(=O)(=O)c1cccc2nsnc12)c1ccccc1)N1CCN(c2ccc(F)cc2)CC1 (stereo not drawn),-0.61,-0.15
O=C1OC(C(F)(F)F)N=C1c1ccccc1 (stereo not drawn),0.49,.

Some of the entries so far, with each value named.
O=C(C(NS(=O)(=O)c1cccc2nsnc12)c1ccccc1)N1CCN(c2ccc(F)cc2)CC1 (stereo not drawn)
  CapD inh = -0.61 | AID504770 = -0.15

O=C1OC(C(F)(F)F)N=C1c1ccccc1 (stereo not drawn)
  CapD inh = 0.49 | AID504770 = .

Compounds were not picked by outcome. Share with any hit: about 0.41%.
